Vaccinia inh: blocks a specific stage of Vaccinia orthopoxvirus infection, primary screen, cell-based, single point; actives 0.01% (n = 89,000); Vaccinia-infected cells, mCherry/Venus stage reporter fluorescence; hits give low values; some inactives read as strong as hits; activity change (mCherry), % (no concentration beside the values);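 active = mCherry past -33% and 40 or more points under the early reporter, replicates agreeing; inconclusive = past -33% without that gap or agreement; tested in A549 cells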;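 also: scaled between vehicle wells and reference inhibitor wells; 23 nL library stock went into each well; one replicate is shown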
Vaccinia inh Venus: also measured in Vaccinia inh; calls as there; activity change (Venus), %; measured here: Venus reporter, other viral stage;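 negative = less Venus signal; first of two replicates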
An asterisk follows results filed as active; ? = inconclusive; . = no result given; & = joins results of further samples. A portion of the library. The share of hits here may be higher or lower than overall.

item	mol	Vaccinia inh	Vaccinia inh Venus
1	C/C=C/c1ccc([C@H]2[C@@H](CO)N[C@@H]2CN(CC)C(=O)CN2CCOCC2)cc1	?	.
2	C[C@@H]1CN([C@H](C)CO)C(=O)c2cc(NS(C)(=O)=O)ccc2O[C@@H]1CN(C)Cc1ccc(C(F)(F)F)cc1	-6	-2
3	COc1ccccc1S(=O)(=O)N[C@H]1CC[C@@H](CC(=O)N2CCOCC2)O[C@H]1CO	24	16
4	CCCNC(=O)[C@H]1[C@H](CO)[C@H]2Cn3c(cccc3=O)[C@H]2N1C(=O)CC1CC1	2	2
5	CC(C)CC#Cc1cnc2c(c1)C(=O)N([C@H](C)CO)C[C@@H](C)[C@@H](CN(C)C(=O)c1ccccc1F)O2	5	7
6	C[C@H]1CN([C@@H](C)CO)C(=O)Cc2cc(NC(=O)C3CCCCC3)ccc2O[C@H]1CN(C)S(=O)(=O)c1ccc(Cl)cc1	-15	-2
7	COc1cccc(NC(=O)N(C)C[C@H]2Oc3cc(-c4ccccc4F)ccc3S(=O)(=O)N([C@H](C)CO)C[C@H]2C)c1	?	.
8	C[C@H]1CN([C@@H](C)CO)C(=O)Cc2cc(NC(=O)CCN3CCOCC3)ccc2O[C@@H]1CN(C)S(=O)(=O)c1cccs1	11	3
9	COc1cccc(-c2ccc3c(c2)O[C@@H](CN(C)Cc2cncnc2)[C@H](C)CN([C@@H](C)CO)S3(=O)=O)c1	-6	-4
10	O=C(Cc1cccnc1)N1CC(=O)N2[C@H](CO)[C@H](c3ccc(C#CC4CC4)cc3)[C@@H]2C1	-4	-3
11	O=C(c1cccnc1)N1CCCCN2[C@H](CO)[C@@H](c3ccc(C#Cc4ccccn4)cc3)[C@@H]2C1	22	4
12	Cc1cc(C(=O)Nc2cccc3c2O[C@H](CN(C)CC2CC2)[C@H](C)CN([C@H](C)CO)C3=O)n(C)n1	-2	7
13	CN(C)CC(=O)N1[C@H](C#N)[C@H](c2ccc(C#CC3CCCCC3)cc2)[C@H]1CO	-23	-9
14	Cc1cccc(S(=O)(=O)N2C[C@H](O)COC[C@H]3O[C@@H](CC(=O)NCc4ccc5c(c4)OCO5)CC[C@@H]32)c1	-2	-2
15	O=C(Nc1ccc(Cl)c(Cl)c1)N[C@@H]1CC[C@@H](CCNC(=O)c2ccc(F)cc2)O[C@@H]1CO	13	17
16	O=C(Cc1cccnc1)N1[C@H](CO)[C@@H]2c3ccccc3NC[C@@H]21	8	-2
17	CC(C)NC(=O)Nc1cccc2c1O[C@H](CN(C)Cc1ccc(C(F)(F)F)cc1)[C@@H](C)CN([C@@H](C)CO)C2=O	-8	2
18	COc1ccccc1-c1cccc(-c2nc(C(=O)N3CCCCC3)cc3c2[C@@H](CCO)N([S@](=O)C(C)(C)C)C3)c1	?	.
19	COc1ccc(NC(=O)Nc2cccc3c2O[C@@H](CN(C)C(=O)Nc2ccc4c(c2)OCO4)[C@@H](C)CN([C@H](C)CO)C3=O)cc1	4	-9
20	C[C@@H]1CCCCO[C@@H](CN(C)Cc2ccncc2)[C@H](C)CN([C@@H](C)CO)C(=O)c2cc(NS(=O)(=O)c3ccc(F)cc3)ccc2O1	5	-2
21	O=C(Nc1ccc(F)cc1)N1CC(=O)N2[C@H](CO)[C@H](c3ccc(Br)cc3)[C@@H]2C1	17	6
22	C[C@H]1CN([C@@H](C)CO)C(=O)Cc2cc(NC(=O)Nc3ccccc3)ccc2O[C@H]1CN(C)C(=O)Nc1ccc(F)cc1	4	5
23	Cc1noc(C)c1S(=O)(=O)N(C)C[C@H]1OCCCC[C@H](C)Oc2ccc(NS(=O)(=O)c3ccccc3)cc2C(=O)N([C@H](C)CO)C[C@@H]1C	-34	-22
24	C[C@@H]1CN([C@H](C)CO)C(=O)c2cc(C#C[C@@H](C)O)cnc2O[C@H]1CN(C)C(=O)Nc1ccc(F)cc1	20	20
25	CCS(=O)(=O)N1CCCCN2[C@H](CO)[C@H](c3ccc(-c4cccc(C#N)c4)cc3)[C@@H]2C1	8	-3
26	Cc1noc(C)c1NC(=O)N(C)C[C@@H]1Oc2ccc(NC(=O)Cc3ccccc3)cc2C(=O)N([C@H](C)CO)C[C@@H]1C	4	-1
27	CO[C@H]1CN(C)C(=O)c2ccc(NC(C)=O)cc2OC[C@H](C)N(Cc2nccs2)C[C@H]1C	-7	0
28	C[C@H]1CN([C@@H](C)CO)C(=O)c2cccc(NC(=O)Nc3ccc(F)cc3)c2O[C@@H]1CN(C)C(=O)NC1CCCCC1	-8	-10
29	C[C@H]1CN([C@@H](C)CO)C(=O)c2cccc(NC(=O)c3ccncc3)c2O[C@@H]1CN(C)Cc1ccncc1	6	-1
30	CO[C@H]1CN(C)C(=O)c2ccc(NC(=O)C3CC3)cc2OC[C@H](C)N(C(=O)c2cccnc2)C[C@@H]1C	9	11

Reprinted from above for reference:
item	mol	Vaccinia inh	Vaccinia inh Venus
22	C[C@H]1CN([C@@H](C)CO)C(=O)Cc2cc(NC(=O)Nc3ccccc3)ccc2O[C@H]1CN(C)C(=O)Nc1ccc(F)cc1	4	5
23	Cc1noc(C)c1S(=O)(=O)N(C)C[C@H]1OCCCC[C@H](C)Oc2ccc(NS(=O)(=O)c3ccccc3)cc2C(=O)N([C@H](C)CO)C[C@@H]1C	-34	-22
24	C[C@@H]1CN([C@H](C)CO)C(=O)c2cc(C#C[C@@H](C)O)cnc2O[C@H]1CN(C)C(=O)Nc1ccc(F)cc1	20	20
25	CCS(=O)(=O)N1CCCCN2[C@H](CO)[C@H](c3ccc(-c4cccc(C#N)c4)cc3)[C@@H]2C1	8	-3
26	Cc1noc(C)c1NC(=O)N(C)C[C@@H]1Oc2ccc(NC(=O)Cc3ccccc3)cc2C(=O)N([C@H](C)CO)C[C@@H]1C	4	-1

Rewritten with one line to a screen: part of the list above.
22) C[C@H]1CN([C@@H](C)CO)C(=O)Cc2cc(NC(=O)Nc3ccccc3)ccc2O[C@H]1CN(C)C(=O)Nc1ccc(F)cc1
23) Cc1noc(C)c1S(=O)(=O)N(C)C[C@H]1OCCCC[C@H](C)Oc2ccc(NS(=O)(=O)c3ccccc3)cc2C(=O)N([C@H](C)CO)C[C@@H]1C
24) C[C@@H]1CN([C@H](C)CO)C(=O)c2cc(C#C[C@@H](C)O)cnc2O[C@H]1CN(C)C(=O)Nc1ccc(F)cc1
assay / compound	22	23	24
Vaccinia inh	4	-34	20
Vaccinia inh Venus	5	-22	20

Going on with the list:
item	mol	Vaccinia inh	Vaccinia inh Venus
31	COc1ccccc1S(=O)(=O)N1CC[C@@H]2[C@H]1c1cc(-c3ccc(C#N)cc3)ccc1N[C@@H]2CO	-32	-20
32	C[C@H](CO)N1C[C@H](C)[C@@H](CN(C)Cc2ccc(C(=O)O)cc2)Oc2c(NC(=O)c3nc4ccccc4s3)cccc2C1=O	4	-3
33	CO[C@H]1CN(C)C(=O)c2cc(NS(=O)(=O)c3ccc(C)cc3)ccc2OC[C@@H](C)N(C(=O)NC(C)C)C[C@@H]1C	-9	-9
34	O=C(C[C@@H]1C[C@@H]2c3cc(NC(=O)Nc4ccc(C(F)(F)F)cc4)ccc3O[C@@H]2[C@@H](CO)O1)NCc1cc(F)ccc1F	-1	-2
35	CNC[C@H]1OCCCC[C@@H](C)Oc2ccc(N)cc2C(=O)N([C@@H](C)CO)C[C@@H]1C	1	-4
36	CN1C(=O)c2cc(NC(=O)C3CCOCC3)ccc2OC[C@H]2O[C@H](CC(=O)O)CC[C@@H]21	-2	-1
37	COc1ccc(CN(C)C[C@@H]2OCCCC[C@H](C)Oc3ccc(NC(=O)NC(C)C)cc3C(=O)N([C@@H](C)CO)C[C@H]2C)cc1	-13	-4
38	Cc1ccc(S(=O)(=O)Nc2ccc3c(c2)C(=O)N([C@@H](C)CO)C[C@H](C)[C@H](CN(C)C(=O)Nc2c(C)noc2C)O3)cc1	10	-1
39	C[C@@H]1CN([C@H](C)CO)C(=O)c2cccc(NC(=O)C3CCOCC3)c2O[C@H]1CN(C)CC1CC1	20	19
40	COC(=O)[C@H]1[C@H](CO)[C@H]2Cn3c(ccc(-c4cccc(F)c4)c3=O)[C@H]2N1CC1CC1	3	-1
41	C[C@@H]1CN([C@H](C)CO)C(=O)CCCn2nncc2CO[C@@H]1CN(C)C(=O)c1cc(-c2ccccc2)on1	13&9	5&0
42	C[C@H](CO)N1C[C@H](C)[C@H](CN(C)Cc2ccc3c(c2)OCO3)OCCCC[C@H](C)Oc2ccc(NC(=O)NC3CCCCC3)cc2C1=O	?	.
43	CCC(=O)N(C)C[C@H]1Oc2cc(/C=C/c3ccccc3)ccc2S(=O)(=O)N([C@@H](C)CO)C[C@@H]1C	-31	-33
44	CO[C@@H]1CN(C)C(=O)c2ccc(NC(=O)C3CCOCC3)cc2OC[C@H](C)N(C(C)=O)C[C@@H]1C	17	19
45	C[C@H](CO)N1C[C@H](C)[C@@H](CN(C)CC2CC2)Oc2cc(-c3ccc(F)cc3)ccc2S1(=O)=O	-14	-17
46	CCCC#Cc1ccc([C@@H]2[C@@H](C#N)N(C(=O)C3CCCC3)[C@@H]2CO)cc1	2	-3
47	CCC(=O)Nc1ccc2c(c1)C(=O)N(C)C[C@H](OC)[C@H](C)CN(C(=O)Cc1ccccn1)[C@H](C)CO2	14	21
48	CCCNC(=O)N1[C@@H](CO)[C@@H](c2ccccc2)[C@@H]1CNC(=O)c1ccccc1	27	23
49	CO[C@H]1CN(C)C(=O)c2ccc(NC(=O)NC(C)C)cc2OC[C@@H](C)N(Cc2ccccc2)C[C@H]1C	4	8
50	CCCNC(=O)N[C@@H]1CC[C@H](CCn2cc(C3CC3)nn2)O[C@@H]1CO	5	4
51	CC=Cc1ccc2n(c1=O)C[C@H]1[C@H](CO)[C@@H](C(=O)NCC3CC3)[C@@H]2N1C(=O)C1CC1 (mixture of isomers)	-1	-1
52	Cc1noc(C)c1S(=O)(=O)N(C)C[C@H]1Oc2ccc(NC(=O)CCCN(C)C)cc2C(=O)N([C@H](C)CO)C[C@H]1C	17	14
53	CCCC#Cc1ccc2c(c1)O[C@H](CN(C)Cc1ccncc1)[C@H](C)CN([C@H](C)CO)S2(=O)=O	-28	-17
54	C[C@H]1CN([C@@H](C)CO)C(=O)Cc2cc(NC(=O)CCCCCC(=O)Nc3ccccc3N)ccc2O[C@@H]1CN(C)CC1CCCCC1	-22	-8
55	CS(=O)(=O)Nc1ccc2c(c1)[C@@H]1C[C@@H](CC(=O)NCc3ccccc3F)O[C@@H](CO)[C@@H]1O2	14	20
56	COc1ccc(C#Cc2ccc([C@@H]3[C@@H](CO)N4CCCCN(S(=O)(=O)c5cn(C)cn5)C[C@H]34)cc2)cc1	?	.
57	CC(C)NC(=O)N1[C@H](CN(C)C(=O)c2ccncc2)[C@@H](c2ccccc2)[C@@H]1CO	20	21
58	CO[C@H](CN(C)S(=O)(=O)c1ccc(F)cc1)[C@@H](C)CN(C(=O)Nc1ccccc1F)[C@@H](C)CO	-16	-16
59	C[C@@H]1CN([C@H](C)CO)C(=O)c2cc(C#Cc3cccnc3)cnc2O[C@H]1CN(C)Cc1ccc(F)cc1	-7	-11
60	O=C(Nc1ccc(F)cc1)N[C@@H]1CC[C@@H](CC(=O)N2CCOCC2)O[C@H]1CO	0	2
61	O=C(C[C@H]1C=C[C@H](NC(=O)c2ccccc2)[C@H](CO)O1)NCc1ccncn1	3	3
62	C[C@@H]1CN([C@@H](C)CO)C(=O)c2cc(NC(=O)Nc3ccccc3)ccc2O[C@@H](C)CCCCO[C@H]1CN(C)S(=O)(=O)c1cn(C)cn1	28	15
63	COc1ccc(NC(=O)N(C)C[C@H]2OCCCC[C@@H](C)Oc3ccc(NS(=O)(=O)c4ccccc4)cc3C(=O)N([C@H](C)CO)C[C@H]2C)cc1	-18	-18
64	CCC(=O)N1CC2(CCN(Cc3nccs3)CC2)c2c(n(C)c3cc(OC)ccc23)[C@H]1CO	-27	-26
65	CC(C)NC(=O)Nc1ccc2c(c1)CC(=O)N([C@@H](C)CO)C[C@@H](C)[C@H](CN(C)C(=O)NC(C)C)O2	19	12
66	COCC(=O)N1[C@@H]2c3ccc(-c4ccccc4)c(=O)n3C[C@H]1[C@H](CO)[C@H]2C(=O)NCc1ccccn1	0	7
67	COc1cccc(S(=O)(=O)N[C@H]2C=C[C@H](CC(=O)NCc3ccncc3)O[C@H]2CO)c1	0	15
68	O=C(C[C@@H]1C[C@H]2c3cc(NS(=O)(=O)c4ccc(F)cc4)ccc3O[C@H]2[C@H](CO)O1)NCc1ccccc1F	-21	-16
69	C[C@@H]1CCCCO[C@H](CN(C)C(=O)c2ccccc2)[C@@H](C)CN([C@@H](C)CO)C(=O)c2cc(NC(=O)CCC(F)(F)F)ccc2O1	?	.
70	O=C(C[C@@H]1C=C[C@@H](NC(=O)Nc2ccc3c(c2)OCO3)[C@@H](CO)O1)NCc1ccccc1	-2	-2
71	C[C@H](CO)N1C[C@H](C)[C@H](CN(C)S(=O)(=O)c2cccc(F)c2)OCc2cnnn2CCCC1=O	7	8
72	COc1ccc(S(=O)(=O)N(C)C[C@@H]2Oc3ccc(NC(=O)Nc4ccc5c(c4)OCO5)cc3C(=O)N([C@@H](C)CO)C[C@H]2C)cc1	-7	11
73	COc1ccc(NC(=O)Nc2ccc3c(c2)C(=O)N([C@@H](C)CO)C[C@H](C)[C@@H](CN(C)C(=O)C2CCCCC2)OCCCC[C@H](C)O3)cc1	-21	-25
74	CNC[C@H]1Oc2ccc(NC(=O)Cn3cnnn3)cc2C(=O)N([C@H](C)CO)C[C@@H]1C	-7	-12
75	CN1C(=O)c2cc(NC(=O)C3CCC3)ccc2OC[C@H]2O[C@@H](CC(=O)NCC3CCCCC3)CC[C@@H]21	3	-1
76	C[C@H](CO)N1C[C@H](C)[C@H](CN(C)C)Oc2ncc(C#CC3(O)CCCC3)cc2C1=O	16	13
77	Cc1ccc(-c2ccc3c(c2)O[C@H](CN(C)C(=O)C2CC2)[C@H](C)CN([C@H](C)CO)S3(=O)=O)cc1	-14	-19
78	C[C@@H]1CN([C@@H](C)CO)S(=O)(=O)c2ccc(Br)cc2O[C@@H]1CN(C)S(=O)(=O)c1cn(C)cn1	3	-5
79	O=C(C[C@@H]1CC[C@@H]2[C@H](COC[C@@H](O)CN2C(=O)Nc2cccc(F)c2)O1)NCCCN1CCOCC1	0	-5

Compound activity as filed in PubChem.
